Compound activity from PubChem BioAssay.
PrP 5UTR inh: inhibition of PrP 5' UTR reporter expression; inhibition, % (concentration not given with the values); 340,000 tested, 0.35% active; AID 488862, 2010; cell-based PrP 5' UTR mRNA reporter, plate reader;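 active = every replicate at 50% or more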;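 note: 0 = median of the neutral control wells; tested in H4 reporter cells; numbers are from one replicate; inactives centre near -14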
Mtb hypoxia rep: PubChem AID 1159583; M. tuberculosis hypoxia-regulated fluorescent reporter, fluorescence; fluorescence inhibition, % (no concentration beside the values); 300,000 tested, 0.1% active;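 active = 35 to 45% if threefold the growth effect, above 45% if 1.5-fold the growth effect; inactive = the rest, general growth blockers included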;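 note: wells of about 50 µL received 100 nL stock; 0% = vehicle wells and 100% = reference inhibitor wells; whole bacteria with a GFP reporter of the hypoxia response; strong numbers were not always called active; many hits fall short of the cut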
Bead autofluor: flagged as autofluorescent in microsphere protease counterscreen | fluorescence intensity (test concentration not listed) | compound autofluorescence counterscreen, microsphere flow cytometry; active compounds read high | 360,000 tested, 3.1% active;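 active = at least 3 SD above the mean of all compounds, about 16000 in these data; inconclusive = too few beads counted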;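 note: 100 nL of 1 mM stock went into each well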
RN4220 kill: growth inhibition of S. aureus RN4220, primary screen, OD600 | 16 h | inhibition, % (concentration not given with the values) | 330,000 tested, 0.33% active | AID 1259311, 2017;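 active = z-score of -3 or lower and OD600 up to 0.18 on both plates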;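 note: plate controls were untreated cells for no effect and reference antibiotic for full effect; stock transfer was 100 nL into about 80 µL; one replicate is shown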
BJeLR lethal: MLPCN primary cell-based screen for lethality selective to Ras in HRASV12 cells; 300,000 tested, 0.17% active; BJeLR (HRASV12) viability, CellTiter-Glo ATP luminescence, 48 h; reference of the scale not given here; inhibition, % (test concentration not listed);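 active = replicate mean above 50%; inconclusive = above 50% but judged a plate artefact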;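 note: 50 nL library stock added to about 25 µL; numbers are from one replicate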
Sa ugtP lethal: growth inhibition of ugtP-null S. aureus, primary screen, RN4220 ugtP deletion, OD600; 16 h; some inactives read as strong as hits; growth inhibition, % (test concentration not listed); 330,000 tested, 0.54% active;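 active = z-score under -3 and OD600 up to 0.15 on both plates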;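 note: plate controls were untreated wells for no effect and antibiotic for full effect; wells of about 80 µL received 100 nL stock; the first replicate is given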
Mtb hypoxia rep growth: also measured in Mtb hypoxia rep; calls as there; growth inhibition, %; measured here: M. tuberculosis growth (absorbance);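 0% = vehicle and 100% = reference antibiotic; read after six days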
* marks the source's active call; other numbers are inactive results; ? = inconclusive; / = not tested or not shown; & = joins results of further samples.

SMILES	PrP 5UTR inh	Mtb hypoxia rep	Mtb hypoxia rep growth	Bead autofluor	RN4220 kill	BJeLR lethal	Sa ugtP lethal
CCCCc1nc2cc(C(=O)N3CCN(c4cnccn4)CC3)ccc2o1	1	3	9	6347	2.3	-5	5
CCCCC(=O)NC(=S)NNC(=O)CC	-14	12	8	4562	7.0	-2	-3
Cc1ncoc1C(=O)NCCC(c1ccccc1)c1ccccc1	-16	13	8	4223	6.1	4	6
CNC(=O)C(C)C1C[C@@]1(C)C(NC(=O)OCc1ccccc1)c1ccccc1 (some centres not stated)	/	22	8	/	2.9	/	3
COc1ccc(C)cc1S(=O)(=O)N(C)CC(=O)NC1CCCCC1	-12	/	/	4578	5.9	-4	4
COc1ccc2nc(NC(=O)C3CCCN(S(=O)(=O)c4c(C)noc4C)C3)sc2c1 (configuration not stated)	-23	/	/	5509	0.7	-7	-3
COc1ccccc1NS(=O)(=O)c1cc(C(=O)N2CCN(C/C=C/c3ccccc3)CC2)ccc1C	-13	3	6	5852	-3.0	3	8
Nc1nnc(Sc2ncccc2[N+](=O)[O-])s1	-11	12	37	3379	16	11	4
CCn1cc([N+](=O)[O-])c(C(=O)Nc2cc(C)on2)n1	-3	/	/	4670	4.0	1	5
COc1cc(/C=N/N=C(/N)c2nonc2N)cc(Br)c1OCc1cccc(C)c1	-13	/	/	4415	/	-4	/
Cc1cc(NN=Cc2ccccc2)nc(NCc2ccccc2)n1	/	-11	-7	/	3.4	/	-3
CCOc1ccc(NC(=O)CCN2C(=S)NC(C)(C)CC2C)cc1 (configuration not stated)	-13	0	2	3938	8.3	/	2
Cc1cc(Nc2ccc(F)c(Cl)c2)n2ncnc2n1	-12	/	/	6510	-3.8	-11	-7
COC(=O)c1ccc(C2NC(=O)c3ccccc3O2)cc1 (configuration not stated)	/	-2	-1	3860	1.0	9	2
CC(C)(C)OC(=O)n1cc(CCO)c2ccccc21	-19	0	8	3233	3.3	/	-1
O=C1CCC(c2ccc3ccccc3c2)O1 (configuration not stated)	-21	0	2	3520	3.8	/	3
COc1cc(C(=O)N2CCN(c3ccccc3)CC2)c([N+](=O)[O-])cc1OC	-24	4	3	5481	-3.9	7	1
COc1ccccc1NC(=O)c1ccc2c(c1)CCN2S(C)(=O)=O	-21	14	8	3553	3.7	-4	3
Nc1nc(Cl)nc2c1ncn2[C@@H]1O[C@H](CO)[C@@H](O)[C@H]1O	2	/	/	4145	/	-23	/
Cc1cc(C(=O)OCC(=O)c2cccs2)c2ccccc2n1	-20	9	7	4234	3.9	-4	11
CC(C)(C)OC(=O)N/N=C/c1cccn1-c1ccc([N+](=O)[O-])cc1	-18	/	/	3824	/	-8	/
O=C(COc1ccc(Cl)cc1)NCCCNC(=O)c1cccnc1	-17	7	5	5047	2.2	4	1
Cc1cc(F)ccc1S(=O)(=O)N1CCCOC1CNC(=O)C(=O)NCCCN1CCOCC1 (configuration not stated)	-10	3	-5	6134	0.7	-9	-5
O=C(c1cccc(C(=O)N2CCN(c3ccccc3F)CC2)c1)N1CCN(c2ccccc2F)CC1	-13	8	1	2498	11	-7	2
O=C1NC(=O)N(CCNc2ncc(C(F)(F)F)cc2Cl)C(=O)C1Cc1ccc(Cl)cc1 (configuration not stated)	-11	-22	0	2469	6.0	-2	-3

(more compounds)
SMILES	PrP 5UTR inh	Mtb hypoxia rep	Mtb hypoxia rep growth	Bead autofluor	RN4220 kill	BJeLR lethal	Sa ugtP lethal
CCN(CC)CCNCC1C(=O)O[C@@H]2C[C@@]3(C)CCC[C@H](C)C3=C[C@H]12 (some centres not stated)	3	18	7	3810	5.7	-6	9
Cc1oc(CC(C)C)c(CN)c1C(=O)O	-28	2	3	10453	9.4	-6	13
CC(Sc1nnc(-c2ccccc2Br)n1-c1cccc(C(F)(F)F)c1)C(N)=O (configuration not stated)	-8	5	12	2021	3.5	7	-2
CCCn1c2ccccc2c2cnn(CC(=O)O)c(=O)c21	-20	9	7	3498	1.9	-11	6
COC(=O)[C@H](C)NC(=O)N1CCC(Cc2ccccc2)CC1	-32	6	-4	4093	2.8	-4	5
COc1ccc(CCNC(=O)CC2Nc3ccccc3NC2=O)cc1OC (configuration not stated)	8	-4	8	24834*	-3.4	-1	-5
COc1ccc(C(=O)N[C@H](C(=O)Nc2ccc(OC)nc2)C(C)C)cc1	-26	12	6	3680	-7.9	-11	5
S=C(NCCc1ccccc1)N1CCN(C2CCCCC2)CC1	-17	6	-1	4621	7.2	7	2
CCC(CO)Oc1cc(NC(=O)c2cccc([N+](=O)[O-])c2)c2ncn(C(C)C)c2c1 (configuration not stated)	-7	16	6	4016	1.5	/	-18
COc1ccc(S(=O)(=O)Nc2cc(C)ccc2OC)cc1C	-7	/	/	5063	5.2	-3	-7
CC(C)c1ccc(/C=C2\SC(=S)N(CC(=O)NCCCN3CCOCC3)C2=O)cc1	-17	-2	-8	2892	4.1	-2	0
CSc1nc2nc(-c3cccs3)cc(C(F)(F)F)c2c(=O)[nH]1	-4	-1	-3	5683	6.1	-7	-5
Cn1c(Oc2ccc3c(c2)OCO3)nc2c1c(=O)n(Cc1ccccc1)c(=O)n2C	-36&-4	/	/	2453	-0.5	-5	-4
COc1ccc(CNC(=O)C(C)N=C2NS(=O)(=O)c3ccccc32)cc1OC (configuration not stated)	-23	1	5	11469	2.5	5	10
CC(=O)N1c2ccc(S(=O)(=O)N3CCC(C(=O)N4CCN(c5cccc(C(F)(F)F)c5)CC4)CC3)cc2CC1C (configuration not stated)	-9	1	-3	4022	-0.1	3	3
Cc1ccc(-c2csc3nc[nH]c(=S)c23)cc1	-26	8	6	2158	-7.1	-1	22
CN(C)S(=O)(=O)c1cccc(C(=O)NCC2CCCO2)c1 (configuration not stated)	-21	/	/	2685	0.2	-3	11
O=C(Nc1cccnc1)c1ccccc1O	-25	1	6	5055	2.0	-3	2
O=C1NC2(CCCCC2)C(=O)N1CC(=O)N1CCc2ccccc21	10	-5	-4	2937	0.4	/	-2
COCCOC(=O)C1=C(C)NC2=C(C(=O)CCC2)C1c1cc2c(cc1Br)OCO2 (configuration not stated)	-19	-6	-3	9541	6.5	-7	2
O=C(NCc1ccccc1)c1cc(-c2ccncc2)nc2ccccc12	8	5	-3	3230	-0.7	4	3
CCOc1ccc(NC(=O)Cn2cc(C(C)=O)c3ccccc32)cc1	-24	-2	3	3414	0.0	1	11
Cc1ccccc1NC(=O)CN1CCc2ccccc2C1	-12	14	10	4086	6.2	-10	6
COc1ccc(Cl)cc1N(C(=O)Nc1cccc(Cl)c1)C1=NCC(C)S1 (configuration not stated)	-3	10	7	2257	16	-7	-6
CCOC(=O)c1cc2sc(C)cc2n1CC(=O)N1CCN(C(=O)c2ccco2)CC1	-20	4	3	7834	-2.6	1	1

Carrying on.
SMILES	PrP 5UTR inh	Mtb hypoxia rep	Mtb hypoxia rep growth	Bead autofluor	RN4220 kill	BJeLR lethal	Sa ugtP lethal
Cc1ccc(S(=O)(=O)N(C)c2ccc(OCC(=O)Nc3nc4ccccc4s3)cc2)cc1	-15	-4	-4	2531	-5.4	9	-3
CC(NC(=O)c1ccccc1F)c1nnc(SCC(=O)NC2=NCCS2)n1C (configuration not stated)	-23	2	-6	5864	1.4	-4	10
O=[N+]([O-])c1ccc(NN=C(c2ccccc2)c2ccccc2)nc1	-21	5	2	3974	3.3	/	19
Cc1ccc2c(c1)C(=NOC(=O)c1ccc(F)cc1)CCS2	/	-1	5	/	7.7	/	-7
Cc1ccsc1C(=O)N1CCN(S(=O)(=O)c2cccc(F)c2)CC1	-1	9	5	?	2.0	11	3
COc1ccc(S(=O)(=O)NCc2ccco2)cc1N(C)S(=O)(=O)c1ccccc1	-26	13	10	3861	12	1	10
NC(=O)c1ccccc1OCC(=O)O	-8	7	3	2073	7.8	1	4
CC(C)c1ccccc1NC(=O)COC(=O)COc1ccccc1[N+](=O)[O-]	-2	13	6	4083	2.1	0	0
O=C(NNC(=O)C1CCN(Cc2cccc(F)c2)CC1)c1cccs1	-23	18	7	4671	0.2	6	3
Cc1cc(NC(=O)CCSc2ccc(Cl)cc2)no1	-24	-10	0	2129	1.1	-9	-3
CCCCNC(=O)Nc1ccccc1C(=O)NCc1ccco1	-13	4	0	7220	2.3	0	7
Cc1cccc(/C(N)=N/OC(=O)Cc2cccs2)c1	-63	10	5	19950*	11	1	2
CCN1C(=O)CSC1=Nc1ccc(C(=O)O)cc1	4	-14	3	4505	-0.7	1	-3
COc1cccc(CN(CC(=O)NCc2ccccc2)C(=O)c2csnn2)c1	1	0	5	5538	-0.9	-7	-3
CCc1c(C)nc(N)n2c(SCC(=O)Nc3ccccc3)nnc12	-33	7	6	9094	1.1	-2	4
COc1cc(OC)cc(-c2c(-c3ccc(F)cc3)c3cc(Br)ccc3n2C)c1	-16	-4	7	2800	-11	/	3
Cc1cc(C)n(-c2nc(C(F)(F)F)nc3ccccc23)n1	2	-1	4	3095	-0.3	-1	-3
Cc1cccc(OCCCC(=O)Nc2ccc(S(=O)(=O)Nc3onc(C)c3C)cc2)c1	-11	13	18	3384	3.3	3	10
Cc1ccc(C(=O)N/C(=C\c2ccc(-c3ccc(Br)cc3)o2)C(=O)NCCCN(C)C)cc1	-13	15	4	2274	0.0	18	-28
CC1=C(C(=O)OCc2ccccc2)C(c2ccccc2Cl)NC(=O)N1CCCCCC(=O)O (configuration not stated)	-11	-2	1	3499	0.7	-9	-3
N#Cc1ccc(NC(=O)Cn2cnc([N+](=O)[O-])c2)cc1	-21	-2	-2	3793	4.6	2	11
Cc1ccc(/C=C/C(=O)OCC(=O)N(CC(C)C)c2c(N)n(Cc3ccccc3)c(=O)[nH]c2=O)o1	-14	/	/	?	/	2	/
Cc1nc(CN2CCCC2=NC#N)n(-c2ccccc2)n1	0	-1	9	9486	3.6	2	1
O=C(CC(NC(=O)c1ccccc1)c1ccccc1)Nc1ccc(F)c(F)c1 (configuration not stated)	-38	12	3	2555	-1.4	13	-21
O=C(NCCCN1CCCCC1)c1ccc(CS(=O)c2ccc(Cl)cc2)o1 (configuration not stated)	4	2	4	4835	0.6	-15	6

Continued:
SMILES	PrP 5UTR inh	Mtb hypoxia rep	Mtb hypoxia rep growth	Bead autofluor	RN4220 kill	BJeLR lethal	Sa ugtP lethal
CCOC(=O)c1cc([N+](=O)[O-])sc1NC(=O)c1ccc(S(=O)(=O)N2CC3(C)CC2CC(C)(C)C3)cc1 (configuration not stated)	-10	7	6	2549	8.3	20	0
COc1ccc(NC(=O)/C(C#N)=C\c2cc(C)n(-c3ccc(Oc4ccc([N+](=O)[O-])cn4)cc3)c2C)cc1	-2	1	-4	3474	-12	4	-8
CCn1c(SCC(=O)OC(C)C)nnc1-c1ccccc1	/	5	3	/	2.8	2	5
O=C(NNc1cccc(Cl)n1)Nc1ccc(F)cc1	-47	3	4	4386	8.4	14	3
Cc1ccc(C)c(SCC(=O)Nc2cc(S(=O)(=O)N3CCOCC3)ccc2C)c1	-5	15	10	?	-1.5	/	10
CCCOc1ccc(C(=O)Nc2ccccc2[N+](=O)[O-])cc1	-104	/	/	2985	-0.3	-1	1
CSc1cccc(NC(=O)COc2cccc3ccccc23)c1	-18	-11	-3	8648	3.3	-8	-8
CCCCCC(C)n1[nH]c(=O)cc1N (configuration not stated)	-9	5	1	3183	-15	-5	-3
CCN(CC(=O)Nc1ccc(OC)cc1)C(=O)c1ccc2[nH]c3c(c2c1)CC(C)CC3 (configuration not stated)	/	11	5	/	-3.1	/	-5

Taken from above for reference:
SMILES	PrP 5UTR inh	Mtb hypoxia rep	Mtb hypoxia rep growth	Bead autofluor	RN4220 kill	BJeLR lethal	Sa ugtP lethal
CCn1c(SCC(=O)OC(C)C)nnc1-c1ccccc1	/	5	3	/	2.8	2	5
O=C(NNc1cccc(Cl)n1)Nc1ccc(F)cc1	-47	3	4	4386	8.4	14	3

Single records (already shown). Order of values: PrP 5UTR inh	Mtb hypoxia rep	Mtb hypoxia rep growth	Bead autofluor	RN4220 kill	BJeLR lethal	Sa ugtP lethal
Shown for `CCn1c(SCC(=O)OC(C)C)nnc1-c1ccccc1` = /	5	3	/	2.8	2	5
Shown for `CCCCCC(C)n1[nH]c(=O)cc1N` (configuration not stated) = -9	5	1	3183	-15	-5	-3
Shown for `CCN(CC(=O)Nc1ccc(OC)cc1)C(=O)c1ccc2[nH]c3c(c2c1)CC(C)CC3` (configuration not stated) = /	11	5	/	-3.1	/	-5
